MgrA-DNA mod: S. aureus MgrA activity modulators, primary screen, biochemical, S. aureus Newman, fluorescence polarization. inhibition, %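 (about 10 µg/mL by stock and volumes)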. MgrA-DNA binding. actives 0.13% (n = 84,000);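 active = above 50% in either of two replicates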;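 also: 0% = protein plus DNA without compound and 100% = DNA alone without protein; higher means less MgrA bound to DNA so lower polarization; one replicate is shown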
Sa helicase inh: inhibitors of S. aureus replicative helicase, primary screen, biochemical, fluorescence unwinding readout; purified S. aureus helicase, fluorescence unwinding assay; about half of the hits fall short of the stated cut; inhibition, %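 (tested at about 80 µM)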; actives 0.05% (n = 120,000);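 active = both duplicates at 50% or more, or one of them with a favoured structure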;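 also: 0% = mean of negative control wells and 100% = mean of positive control wells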
Active calls of the source: *; nt = not tested or not shown; & = joins results of further samples.

structure | MgrA-DNA mod | Sa helicase inh
COc1cc2c(cc1OC)C(Nc1nc(-c3ccccc3)cs1)=NC(C)(C)C2 | 2.0 | 6
CC[n+]1ccc(C)c2ccccc21 | -0.5 | 2
CN(Cc1ccccc1Cl)C(=O)C1CC(=O)N(c2ccc3c(c2)OCCO3)C1 (stereo not drawn) | nt | -13
Cc1cc(NC(=O)c2cccc(S(=O)(=O)N(C)C)c2)n(-c2ccccn2)n1 | nt | 5
CCCn1c(SCn2nnc3ccccc3c2=O)n[nH]c1=O | nt | -13
COC(=O)c1ccc(NC(=O)c2ccc(Cl)cc2)s1 | -0.5 | -11
C/[N+]([O-])=C\c1ccc(C#N)cc1 | -1.7 | 11&-1
O=C(C1CCCN(S(=O)(=O)c2ccccc2)C1)N1CCN(c2ccc(F)cc2)CC1 (stereo not drawn) | -0.8 | 15
CCCCn1c(N)c(N(C)C(=O)CSc2nnc(-c3ccco3)n2CC)c(=O)[nH]c1=O | nt | 9
COc1cc(/C=C2\COC/C(=C\c3ccc(O)c(OC)c3)C2=O)ccc1O | 0.3 | nt
CCOC(=O)c1sc(NC(=O)Cc2n[nH]c(=O)c3ccccc23)cc1C | nt | 8
CCc1ccc(/C=C2\C(=O)N(Cc3ccco3)C(C)=C2C(=O)OC)cc1 | 31 | 7
CCCCC(=O)Nc1ccccc1CC | 5.2 | 24
NC(=O)/C=C\c1cn(-c2ccccc2)nc1-c1ccc2c(c1)OCCO2 | -2.3 | 13
Cc1ccc2cc(CCNS(C)(=O)=O)c(=O)[nH]c2c1 | nt | -16
CCCCCNc1nc(C)c(C(=O)OCC)s1 | nt | -7
Cc1nn(C(=O)c2ccc(F)cc2)c(N)c1-c1ccccc1 | -2.6 | -3
CCCCn1c(CN2C(=O)NC3(CCCCC3C)C2=O)nc2cc(S(=O)(=O)N3CCOCC3)ccc21 (stereo not drawn) | nt | 20
Nc1ccc(F)cc1S(=O)(=O)Nc1ccc(Br)cc1 | 1.3 | -22
Clc1ccc(-c2nnc3ccccn23)cc1 | -0.9 | 15
COC(=O)c1ccccc1SC(CC(=O)c1cccnc1)c1ccc(F)cc1 (stereo not drawn) | -2.9 | nt
Nc1ccc(Oc2ccc(C(=O)O)cc2)cc1 | nt | -11
CC1CCCCN1S(=O)(=O)c1ccccc1C(=O)N1CCCCCC1 (stereo not drawn) | nt | 6
S=C1OC(c2ccccc2)=C/C1=C\N1CCCCC1 | 5.0 | -8

Copied from the list:
Reading of CCCCC(=O)Nc1ccccc1CC under MgrA-DNA mod: 5.2
Reading of S=C1OC(c2ccccc2)=C/C1=C\N1CCCCC1 under MgrA-DNA mod: 5.0
Reading of CCCCCNc1nc(C)c(C(=O)OCC)s1 under Sa helicase inh: -7

The list continues:
structure | MgrA-DNA mod | Sa helicase inh
O=C(CN1C(=O)c2ccccc2C1=O)NCC1COC2(CCCCC2)O1 (stereo not drawn) | nt | 12
COc1ccc2c(C)cc(N3CC(C)OC(C)C3)nc2c1 (stereo not drawn) | nt | 19
Cc1ccc(-n2c(C)cc(C(=O)COc3ccc(C#N)cc3)c2C)cc1 | nt | 10
Cc1ccsc1CCNS(=O)(=O)c1c(C(=O)N2CCCC2)c(C)n(C)c1C | nt | 10
CCN(CCO)C(=O)NC1CC(=O)N(c2ccc(C)cc2)C1 (stereo not drawn) | nt | 1
COc1ccc(CCNC(=O)CC(c2ccccc2)c2cc(C)ccc2O)cc1OC (stereo not drawn) | nt | 6
COc1ccc(-n2ncc3c(N4CCc5ccccc54)ncnc32)cc1 | 1.6 | 9
Cc1ccccc1OCC1Cn2c(nc3c2c(=O)[nH]c(=O)n3C)O1 (stereo not drawn) | 4.4 | 13
O=S(=O)(/N=C(\OC1CCCCC1)c1ccccc1)c1ccccc1 | 0.8 | 4
O=C1CCCC1c1cc(NS(=O)(=O)c2ccc(Cl)cc2)ccc1O (stereo not drawn) | nt | -14
COC(=O)c1sccc1NC(=O)C1CC1 | -2.7 | nt
CN(C)CCNC(=O)c1ccc(-n2c(=S)[nH]c3ccccc3c2=O)cc1 | nt | 5
CCOC(=O)c1sc(SCc2ccc(Cl)cc2)c(S(=O)(=O)C(C)C)c1N | 3.4 | nt
Cc1ccc(CS(=O)Cc2ccc(C(=O)NCC(C)c3ccccc3)o2)cc1 (stereo not drawn) | nt | -6
COc1ccc(CNC(=O)C2CCCN(c3ncnc4c3nc3n4CCCCC3)C2)cc1 (stereo not drawn) | nt | -10
CC1CC(C)(C)CC2(C1)NC(=O)N(CC(O)c1ccccc1)C2=O (stereo not drawn) | nt | 17
O=c1cc(O)nc2ccccn12 | nt | 21
COc1ccc(-n2nnnc2SCC(=O)NCC(C)C)cc1 | nt | 10
Oc1cccc(Oc2ccccc2)c1 | nt | 34
COc1cccc(OC)c1C(=O)Nc1nnc(C2CCCCC2)s1 | nt | 1
O=S(=O)(c1ccc(N=c2scc(-c3ccco3)n2/N=C/c2ccc3c(c2)OCO3)cc1)N1CCOCC1 | nt | -9
CCOc1ccc(C(=O)Nc2ccc(-c3nn4c(C)nnc4s3)cc2)cc1 | 2.5 | -7
O=C(CCN1C(=O)c2ccccc2Sc2ncccc21)NC1CCCC1 | -2.2 | 12
Cc1cc(C)nc(N(C#N)C(=S)N(C)C)n1 | 7.8 | 15
Cc1ccccc1CN(C)CC(O)COCc1ccc2c(c1)OCO2 (stereo not drawn) | nt | 19
CCOC(=O)c1ccc(NC(=O)CSCC(=O)O)cc1 | -1.9 | nt
O=C(NCc1cccs1)c1ccccc1O | -2.2 | nt
COCc1[nH]nc2c1C(c1ccc(F)c(F)c1)C(C#N)=C(N)O2 (stereo not drawn) | 0.2 | 5
O=C(NC1=NN(c2ccccc2)C(=O)C1)c1ccc(Br)s1 | nt | -4
CCC(=O)Nc1ccc(-c2nc3ccccc3o2)cc1 | nt | 5
Cc1nn(-c2ccc(Cl)cc2Cl)c(=O)c2ccccc12 | nt | 8
CC(C)(C)NS(=O)(=O)c1ccc(/C=C/C(=O)O)cc1 | nt | 10
CN1C(=O)CC(Nc2cccc3cccc(N)c23)C1=O (stereo not drawn) | nt | -2
O=S(=O)(Nc1ccon1)c1cc(F)ccc1F | -0.8 | 5
Cc1cc(C)nc(Nc2ncc(O)n2-c2ccc(Cl)cc2)n1 | nt | 32
CCOc1cc(/C=C2\SC(=S)N(C(Cc3ccccc3)C(=O)O)C2=O)ccc1O (stereo not drawn) | -2.0 | nt
Clc1cccc(-c2nc(-c3ccccn3)no2)c1 | 1.1 | 0
O=C(Cc1c(Cl)cccc1Cl)NCC(c1ccco1)N1CCCC1 (stereo not drawn) | nt | -9
CCOC(=O)N1CCC(=NNC(=S)Nc2ccc(Cl)cc2Cl)CC1 | nt | -1
CCN=c1sc(C(=O)OC)cc(=O)n1CC | -1.4 | 12
O=C1c2ccccc2C2(c3ccccc3)N1CCN2C(=O)C(Cl)(Cl)Cl (stereo not drawn) | 0.1 | nt
C=CCN1CC(c2nc3ccccc3n2C(C)c2ccccc2)CC1=O (stereo not drawn) | -6.2 | -1
CCS(=O)(=O)n1nc(-c2ccc(OC)cc2OC)cc1N | nt | -7
CN1C(=O)C(=O)/C(=C(/O)c2ccccc2)C1c1ccccc1 (stereo not drawn) | -2.6 | 2
CCOC(=O)c1cnn(-c2ccc([N+](=O)[O-])cc2)c1C(F)(F)F | -3.6 | nt
CC(C)(CO)NCc1cccs1 | -0.6 | 14
Cc1nnc(Oc2ccccc2C#N)c2ccccc12 | nt | -5
CCOC(=O)c1cc(CC)sc1NC(=O)C=C(C)C | 1.5 | 9
Cc1ccccc1S(=O)(=O)CC(SC#N)c1ccccc1 (stereo not drawn) | -12 | 5
CCc1c(C)nc2ccc(OC)cc2c1Cl | -0.3 | 13
C[C@@H](C(=O)N=c1sc2ccccc2n1C)N1C(=O)C2CC=CCC2C1=O (stereo partly drawn) | nt | -17
Cc1[nH]ccc2c1[nH]c1cc(=O)ccc12 | -3.4&-0.9 | nt
O=C(NC1CCCCC1)c1ccc(NC2=NC3CS(=O)(=O)CC3S2)cc1 (stereo not drawn) | nt | -8
S=c1[nH]nc(-c2ccc[nH]2)o1 | nt | 17
COc1cccc(C2c3c(-c4ccccc4O)n[nH]c3C(=O)N2CCc2ccccc2)c1 (stereo not drawn) | nt | 14
CC(C)Cn1c(N)cc(=O)n(C)c1=O | nt | -14
CCc1cc2c(cc1C(=O)CSc1nnc(COc3ccc(C)c4c3CCC4)n1-c1ccccc1)C(C)(C)CCC2(C)C | -1.0 | nt
CCOc1cc(C=C2C(=O)N(C)C(=O)N(C)C2=O)ccc1OCCOCCOc1ccc(C)cc1 | -2.1 | nt
COC(=O)c1cn(CC(=O)Nc2ccc(F)cc2)c2ccccc12 | -0.6 | 5
Cc1cccc(N2C(=O)c3cccc4cccc(c34)C2=O)n1 | nt | -7&-14

Going on with the list.
structure | MgrA-DNA mod | Sa helicase inh
COc1ccc(CC(=O)NC2=NC(=O)C(C)S2)cc1 (stereo not drawn) | -0.4 | -9
CC1CCCN(c2ccc(C(=O)NCCc3ccccc3)cn2)C1 (stereo not drawn) | 1.7 | 7
Nn1c(-c2cccs2)nc2sc3c(c2c1=O)CCCC3 | nt | 10
O=C(N=C1c2ccccc2CN1c1ccc2c(c1)OCO2)c1ccco1 | nt | -15
COCCn1c(C)cc(C(=O)CSC2=Nc3ccccc3CS2)c1C | nt | 28
CCOC(=O)N1CCN(c2nnc(Cc3cccnc3)c3ccccc23)CC1 | nt | -22
CC(=O)Nc1ccc(C(C)(C)C)cc1C#N | -3.1 | nt
Cc1ccc(COc2ccc3ccc(=O)oc3c2)cc1 | nt | 21
O=C(N/N=C/c1cccnc1)c1[nH]nc2c1CCc1ccccc1-2 | nt | -7
Cc1ccc2nc(-c3ccc(NC(=O)C4CC4)cc3)sc2c1 | nt | 18
O=C(O)c1ccc(N/N=C/C2=C(N3CCOCC3)C(=C\c3ccccc3)/CC2)cc1 | nt | -136
O=C(O)CCCNC1C=CS(=O)(=O)C1 (stereo not drawn) | -0.8 | 17
Cc1cc(N(C)Cc2ccccc2)ncn1 | nt | 5
N#CC(C(=O)c1ccc(F)cc1)c1nc2ccccc2[nH]1 (stereo not drawn) | -2.5 | 0
O=C(Nc1ccc2c(c1)OCO2)c1cnn2c(C(F)(F)F)cc(-c3ccco3)nc12 | 0.4 | 5
CCNC(=S)N1CCN(C(=O)C(Cc2ccccc2)NC(C)=O)CC1 (stereo not drawn) | 16 | 7
Cc1nnc2sc(SCc3ccccc3)nn2c1=O | 0.1 | -1
Cc1ccc(NC(=O)C2CCCN(S(=O)(=O)c3ccc4[nH]c(=O)ccc4c3)C2)nc1 (stereo not drawn) | 3.4 | -6
CN1N=C(c2ccccc2)CC1=O | 0.6 | 5
Cc1nnc(Nc2ccc(F)cc2)c2ccccc12 | nt | 4
CC(C)(C)NC(=O)Cc1n[nH]c(=O)c2ccccc12 | nt | 7
CCN(CC)CCCNc1ncnc2sc3c(c12)CC(C)CC3 (stereo not drawn) | -1.0 | 12
Nc1ccc(Cn2ccnc2)cc1 | -4.2 | 5
O=C(Cc1ccccc1)Nc1nc(-c2cccs2)cs1 | nt | 5

Reformatted: entries from further up.
Fields: MgrA-DNA mod	Sa helicase inh
Cc1nnc(Nc2ccc(F)cc2)c2ccccc12
 : nt	4
CC(C)(C)NC(=O)Cc1n[nH]c(=O)c2ccccc12
 : nt	7

The listing continues:
structure | MgrA-DNA mod | Sa helicase inh
COC(=O)c1cc(S(=O)(=O)NCC2CCCO2)c[nH]1 (stereo not drawn) | -5.4 | -4
COc1c2ccoc2nc2c(OC)c(OC[C@H](O)C(C)(C)O)ccc12 | nt | 7
CCN1Cc2cccc(CNc3ccc(C)c(Cl)c3)c2C1 | nt | 10
Cc1cccc(-n2c(CSCc3cccc4ccccc34)n[nH]c2=S)c1 | 1.1 | nt
N#CSc1ccc2nc(N)sc2c1 | -2.1 | 0
COc1ccc2cc3[n+](cc2c1OC)CCc1cc2c(cc1-3)OCO2 | 1.2&1.1 | nt
CCOc1ccccc1NC(=O)CCn1cnnn1 | -0.6 | 5
CCC(C)(C)c1cnc(NC(C)=O)s1 | -0.8 | 4
CCOc1cc(-c2noc(N)c2C#N)cc(OCC)c1OCC | nt | -12
CCc1c(C)[nH]n2cnnc2c1=O | nt | 4
O=P(O)(c1ccccc1)C1CCCCN1 (stereo not drawn) | nt | -4
CCOc1ccccc1N(CC)C(=O)Cn1ncc2c(=O)oc3ccccc3c21 | nt | -12
O=C(COC(=O)c1cn(-c2ccccc2)nc1-c1ccccc1)c1ccc(Br)cc1 | 1.1 | -7
CC(NCCN1CCNCC1)c1cc(C(C)(C)C)cc2c1CCC2(C)C (stereo not drawn) | -4.3 | 6
Cc1ccc(S(=O)(=O)CCSc2n[nH]c(=O)n2-c2ccc3c(c2)OCCO3)cc1 | nt | 17

Single records, as listed above:
Listed for CC(NCCN1CCNCC1)c1cc(C(C)(C)C)cc2c1CCC2(C)C (stereo not drawn) : MgrA-DNA mod = -4.3; Sa helicase inh = 6
Listed for CCc1c(C)[nH]n2cnnc2c1=O : MgrA-DNA mod = nt; Sa helicase inh = 4

Part of the list above, with values under each structure:
Value order – MgrA-DNA mod	Sa helicase inh
> CCN1Cc2cccc(CNc3ccc(C)c(Cl)c3)c2C1
  nt	10
> Cc1cccc(-n2c(CSCc3cccc4ccccc34)n[nH]c2=S)c1
  1.1	nt
> N#CSc1ccc2nc(N)sc2c1
  -2.1	0

Some of the compounds tested; rates above refer to the full screens.
